From PubChem BioAssay
Sfp PPTase inh = inhibitors of Bacillus subtilis Sfp phosphopantetheinyl transferase; Q9F4F7; AID 1490; hit rate 3.5% among 310,000; Biochemical Sfp PPTase activity, qHTS; Potency, µM, without a hit: max response, negative = inhibition, hits mostly inhibitors; active means well fitted inhibition curve with a large enough effect; inconclusive means small, poorly fitted or top-dose-only effect, or another doubt; inactive means no such curve, though single readings can be large or run the other way;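 further: the enzyme is Sfp with the accession as filed and its product quenches rhodamine fluorescence; potency means the concentration at half of the fitted maximal effect; 0% = enzyme reaction without inhibitor and -100% = no enzyme wells; top concentration of the series not given in the record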
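Buffer: 50 mM Hepes-Na pH 7.6, 10 mM MgCl2, 0.01% Nonidet P-40, 0.01% BSA. Enzyme 15 nM, pre-exposed to compound 15 min; substrates then added and fluorescence change tracked over 30 min.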
Menin-MLL FL inh = displaces fluorescein MLL peptide from human menin; Fluorescence polarization, fluorescein-MLL peptide displacement from menin; FP activity change, % at 61.4 µM; 290,000 tested, under 10 active; inconclusive = falling polarisation curve, or a change in total fluorescence; inactive = total fluorescence flat and polarisation flat or rising; no compound was filed as active; the % refers to the polarisation; negative = inhibition;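 further: % of control where 0% means no effect; inhibitors lower the polarisation; unlabelled MLL peptide was the positive control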
ClpP mod = qHTS Assay for Activators of ClpP. purified B. subtilis ClpP, FRET peptide cleavage, 20 min. Potency, µM (titrated, usually from 57.5 µM), inactives show top-dose activity change, negative = active. hit rate 1.9% among 340,000. AID 651965, 2013; active = well fitted falling curve with a large enough effect; inconclusive = small, poorly fitted or top-dose-only effect; inactive = no such curve, though single readings can be large or run the other way; further: potency means the concentration at half of the fitted maximal effect; the source files actives as falling curves though it sought activators and does not explain the sign; nearly all actives have a fitted effect of over 65% in size; many hits overshoot -100%
Target sequence (P80244 whole entry, looked up): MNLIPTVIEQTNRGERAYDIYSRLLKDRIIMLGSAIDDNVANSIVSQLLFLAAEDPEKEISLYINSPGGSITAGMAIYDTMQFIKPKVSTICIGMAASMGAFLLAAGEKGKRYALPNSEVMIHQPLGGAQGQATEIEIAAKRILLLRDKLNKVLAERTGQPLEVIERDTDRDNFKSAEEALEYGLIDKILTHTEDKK
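Purified B. subtilis ClpP, 10 microg/mL final in Tris/HCl pH8 with KCl, BSA, glycerol and Tween-20, cleaved an Abz/nitrotyrosine-quenched decapeptide. Fluorescence (ex 320, em 430) was read at 0 and 20 min at room temperature. Delta was normalized to 5.8 microM ADEP and DMSO/no-enzyme controls.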
D2 potentiator = positive allosteric modulators of human D2 dopamine receptor; hit rate 0.23% among 360,000; potentiation, % (concentration not given with the values); AID 624464; DiscoveRx D2 beta-arrestin cells, luminescence, 90 min; 100% = 57 uM dopamine signal; P14416; active = potentiation of 50% or more; inconclusive = 30% to 50%; inactive = 30% or less;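 further: compound concentration not given in the record; tested on top of an EC20 dose of dopamine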
Target sequence (P14416 whole entry, looked up): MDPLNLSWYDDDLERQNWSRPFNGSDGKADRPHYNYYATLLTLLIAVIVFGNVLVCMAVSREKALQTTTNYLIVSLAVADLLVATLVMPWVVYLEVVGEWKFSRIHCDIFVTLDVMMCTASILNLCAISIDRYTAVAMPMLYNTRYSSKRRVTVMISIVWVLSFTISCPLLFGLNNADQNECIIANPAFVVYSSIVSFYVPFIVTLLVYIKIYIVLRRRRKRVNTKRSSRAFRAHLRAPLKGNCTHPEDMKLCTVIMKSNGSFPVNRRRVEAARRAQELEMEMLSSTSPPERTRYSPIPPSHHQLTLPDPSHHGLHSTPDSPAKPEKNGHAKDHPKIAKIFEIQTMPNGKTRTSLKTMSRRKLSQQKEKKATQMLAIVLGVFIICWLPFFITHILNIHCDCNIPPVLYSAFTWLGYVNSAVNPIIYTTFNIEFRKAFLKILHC
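PathHunter D2 cells, attached overnight at 37 deg C, received compound in DMSO plus dopamine at EC20 (50 nM final) for 90 min at 37 deg C. Beta-arrestin recruitment was read as luminescence after 1 h with detection reagent at ambient temperature.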
TRPV1 PAM = human TRPV1 potentiation; hit rate 0.02% among 320,000; TRPV1-expressing cells, Fluo-8 calcium influx, capsaicin EC20 potentiation; host cell line not named in the record; control for the full effect not named in the record; Q8NER1; potentiation, % at 8.33 µM; active means potentiation above 80%; inconclusive means 30% to 80%; inactive means below 30%; further: 0% is about no effect
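Fluo-8 calcium influx in TRPV1-expressing cells, kinetic read (ex 480/em 520 nm). Compound added and read 3 min for agonist activity, followed by capsaicin at EC20 final and 2 min further read for enhancement.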
gsp agonist = agonists of gsp mutant (McCune-Albright syndrome) | gsp mutant cells, cAMP HTRF, 30 min; control for the full effect not named in the record | AID 624287 | Potency, µM (titrated, usually from 76.9 µM), without a hit: top-dose activation (cAMP increase), actives largely listed as activators | hit rate 0.13% among 340,000; active = well fitted activation curve with a large enough effect; inconclusive = small, poorly fitted or top-dose-only effect, or another doubt; inactive = no such curve, though single readings can be large or run the other way; cell line not stated here;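 further: phosphodiesterase inhibitor Ro 20-1724 added with compounds to block cAMP breakdown; potency means the concentration at half of the fitted maximal effect; nearly all actives have a fitted effect of over 60% in size; about a fifth of the inactives were tested at one dose only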
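Cells in DMEM/10% FBS with G418 were pretreated with compounds in DMSO plus […] (300 uM stock) for 30 min at 37C. cAMP was measured by HTRF (cAMP-d2 plus anti-cAMP antibody-K) after 30 min at room temperature.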
gsp antagonist = antagonists of gsp mutant (McCune-Albright syndrome); gsp-mutant cells, cAMP HTRF, 30 min; control for the full effect not named in the record; Potency, µM (highest dose often 76.9 µM), without a hit: top-dose activity change, negative = inhibition, actives largely listed as inhibitors; hit rate 0.4% among 340,000; AID 624288; active = falling curve of any shape with a large fitted effect; inconclusive = falling curve, mostly with a smaller effect; inactive = flat or rising curve; cell line not stated here;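 further: intracellular cAMP measured with PDE inhibitor Ro 20-1724 present during compound exposure; potency means the concentration at half of the fitted maximal effect; on the % scale 0 is the no-effect control and ±100 the full control effect; nearly all actives have a fitted effect of over 65% in size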
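HTRF cAMP read-out (cAMP-d2 plus anti-cAMP antibody-K in lysis buffer, 30 min RT). Before lysis, cells are exposed to compounds with […] for 30 min at 37C in DPBS containing Ca/Mg, BSA and Tween 20.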
Numbers without * were called inactive; ? = inconclusive; / = no result given; & = joins results of further samples; [ ] = another dose, or the depositor's remark.

SMILES	Sfp PPTase inh	Menin-MLL FL inh	ClpP mod	D2 potentiator	TRPV1 PAM	gsp agonist	gsp antagonist
COc1ccc(OC)c(/C=C/C(=O)OCC(=O)N2C(C)CCCC2C)c1 (stereo not given)	/	/	?	-4.9	/	14.6%	-12.9%
O=C(c1nc2ccc(Cl)cn2c1CNCCc1cnccn1)N1CCCCCCC1	-5.8%	0.7	-2.0%	-22.1	5.9	9.8%	-17.9%
O=S(=O)(Nc1ncccn1)c1ccc(NC(=S)Nc2ccc(Cl)cc2)cc1	39.8µM*	6.0	-3.6%	-12.5	-6.5	7.8%	1.4%
Cc1c(O)ccc(/C=N/Nc2ncccc2[N+](=O)[O-])c1O	16.9%	-1.0	-0.7%	0.6	-6.1	13.7%[15.4 µM]	-5.8%
COC(=O)Cn1cc(/C=C/c2cc[n+](C)cc2)c2ccccc21	7.0%	?	0.5%	-5.0	-6.1	-15.4%	-16.8%
CC(=O)Nc1ccc(SCC(=O)NCCc2ccc(F)cc2)cc1	8.0%	-1.6	/	-29.2	2.4	-8.3%[15.4 µM]	-16.5%
CC(=O)c1ccc(NC(=O)CNCC(c2ccccc2)N(C)C)cc1 (stereo not given)	79.4µM*	4.4	-1.1%	-2.1	7.0	1.8%[15.4 µM]	4.5%
Cc1nn(-c2ccccc2)c(C)c1C1C(C#N)=C(N)Oc2n[nH]c(C)c21 (stereo not given)	8.6%	1.1	-1.4%	12.7	-4.0	-12.9%	4.3%
Cc1cc(C)c(C2C(C#N)=C(N)Oc3n[nH]c(C)c32)cc1CN1CCCC1 (stereo not given)	-4.0%	-0.8	0.4%	-20.7	0.0	0.7%	4.9%
Cc1nc2cc(NCc3ccccc3O)ccc2n1Cc1ccccc1	-10.6%	1.9	/	9.7	5.5	6.6%[15.4 µM]	/
COc1ccc(NS(=O)(=O)CC23CCC(CC2=O)C3(C)C)cc1 (stereo not given)	12.9%	-0.2	0.5%	-1.6	4.8	-49.0%[inhibitor]	13.7%
CC(C)CNC(=O)COC(=O)Cc1ccc(Cl)cc1	20.7%	0.1	/	8.8	-3.6	7.0%[15.4 µM]	-8.8%
CN(Cc1ccccc1)c1ncnc(N)c1[N+](=O)[O-]	18.3%	-3.0	/	-4.6	12.2	-21.5%	13.8%
O=C1CC(O)(c2ccccc2)C(c2ccccc2)=C1c1ccccc1 (stereo not given)	14.9%	/	-0.2%	-2.9	5.5	-4.0%	-7.7%
CCN(CCn1cccn1)Cc1c(C(=O)N2C[C@@H](C)O[C@@H](C)C2)nc2ccc(Cl)cn12	2.1%	-15.3	/	-6.9	-3.4	23.1%[15.4 µM]	4.8%
CC1(C)C/C(=N\O)c2cc3c(nc2C1)CCCC3	1.7%	-5.2	0.2%	-3.8	-12.1	-22.1%	6.1%
COc1ccc(NC2CC(=O)N(CCc3ccccc3)C2=O)cc1 (stereo not given)	1.6%	0.1	0.2%	-12.5	3.2	-17.9%	7.2%
Cc1cc(C)c(NC(=O)CCCN2CCOCC2)c(C)c1	20.0%	3.9	-3.3%	-8.2	-0.9	-8.4%	5.6%
O=C(Cc1ccccc1)n1nc(-c2ccco2)nc1SCc1ccccc1	13.2%	5.2	0.9%	-1.5	-3.3	-15.1%	12.7%
COc1cc(C2C(C(=O)c3ccc(C)o3)=C(O)C(=O)N2c2cc(C)on2)cc(OC)c1OC (stereo not given)	-19.2%	1.6	-0.4%	-8.5	3.5	?	-0.5%
O=C(Nc1ccc(O)c2c(=O)cc(-c3ccccc3Cl)oc12)c1cccs1	-23.2%&-22.9%	-0.1&-6.2	0.0%	-1.9	9.6	-1.9%	-2.2%
Cc1sc2ncnc(N3CCC(C(=O)Nc4ccc(Cl)c(Cl)c4)CC3)c2c1C	/	/	-16.4%	-3.0	1.3	-18.4%	-26.5%
COc1ccc(-c2csc(NC(=O)CSc3nc4ccccc4c(=O)[nH]3)n2)cc1	-17.5%	19.3	/	-3.5	11.2	3.5%	-8.8%
COc1ccccc1CNC(=O)c1ccc2ccccc2n1	-1.8%	-5.7	/	-11.2	17.4	12.0%[15.4 µM]	?
COc1ccc2[nH]c(=O)c(CN(C(=O)c3ccccn3)C3CCCCC3)cc2c1	-19.7%	0.5	?	-8.1	-1.2	0.9%	?
CCOC(=O)c1sc(NC(=O)c2ccc(Br)o2)cc1C	-5.2%	2.6	-6.4%	-25.6	-28.7	7.4%	-9.9%
Cn1c(CC(=O)Nc2ccccc2F)nnc1SCC(=O)NC1=NCCS1	7.4%	/	-1.1%	-5.4	-5.1	-43.9%[inhibitor]	4.1%
O=C(CN1C(=O)c2cccnc2Oc2ccc(Cl)cc21)N1CCCCCC1	-0.1%	/	0.7%	-7.5	-28.8	-35.9%[inhibitor]	-1.2%
Cc1ccccc1-c1ccc(CN2CCN(C)C(CCO)C2)cc1 (stereo not given)	7.9%	-0.2	-1.2%	-56.2	-3.8	-23.0%	12.2%
Cn1c(-c2ccccc2O)cc2ccccc21	-4.5%	0.9	15.8µM*	-0.1	2.2	?	-9.8%

Reprinted from the part before: two entries, then new ones.
SMILES	Sfp PPTase inh	Menin-MLL FL inh	ClpP mod	D2 potentiator	TRPV1 PAM	gsp agonist	gsp antagonist
Cc1ccccc1-c1ccc(CN2CCN(C)C(CCO)C2)cc1 (stereo not given)	7.9%	-0.2	-1.2%	-56.2	-3.8	-23.0%	12.2%
Cn1c(-c2ccccc2O)cc2ccccc21	-4.5%	0.9	15.8µM*	-0.1	2.2	?	-9.8%
COc1cc(SC)ccc1C(=O)NCCOc1ccc(Cl)cc1	-5.9%	1.9	1.2%	-15.6	?	?	-22.8%
COc1cc(NC(=O)CSc2nc3c(c(=O)[nH]2)CCCC3)cc(OC)c1OC	16.8%	1.8	/	-25.1	7.6	-6.9%[15.4 µM]	/
O=C(O)c1ccc(COc2ccccc2/C=C2\NC(=O)N(Cc3ccccc3)C2=O)cc1	9.4%	1.7	/	-5.9	3.0	-9.1%[15.4 µM]	-21.7%
O=C(CCc1ccccc1)NNC(=O)Cc1ccccc1	28.6%	0.6	/	-2.9	0.5	-3.9%	-3.5%
Cc1ccc2[nH]c(=O)c(CN(Cc3ccc4c(c3)OCO4)Cc3nnnn3C3CCCC3)cc2c1	3.8%	-0.8	81.4%	-3.2	-4.8	0.8%	-17.7%
CCS(=O)(=O)NCCCCc1ccccc1	11.0%	5.3	1.2%	?	3.6	?	-3.0%
COC(=O)Nc1nnc(-c2ccco2)s1	-5.4%	6.3	/	-2.6	?	0.0%[15.4 µM]	-6.1%
COc1cc(OC)c(C(=O)OCC(=O)NCC2CCCCC2)cc1OC	/	/	-21.4%	-3.6	2.8	?	-7.8%
COc1ccc(/C(O)=C2/C(=O)C(=O)N(c3ccccn3)C2c2ccc(C(C)C)cc2)cc1 (stereo not given)	8.4%	3.5	2.6%	1.4	27.4	?	4.4%
COc1ccc(/C(C)=N/NC(=O)c2ccccc2N)cc1	14.4%	-2.0	/	-8.5	-14.0	-46.7%[inhibitor]	6.1%
Cc1cc(C(=O)Nc2cccnc2)no1	12.5%	-3.0	-1.7%	-15.6	5.2	0.5%	7.2%
COc1ccc(NC(=O)Cn2c(=O)n(CC3CCCO3)c(=O)c3cc(OC)c(OC)cc32)c(OC)c1 (stereo not given)	8.4%	-2.7	-9.1%	-0.9	24.0	2.5%	-6.7%
CC(C)C(=O)N(c1ccc(F)cc1)C1C=CS(=O)(=O)C1 (stereo not given)	8.9%	?	0.5%	1.1	12.4	-7.0%	17.1%
CCOC(=O)c1c(NC(=O)CCCN2CCOCC2)sc2c1CC(C)(C)OC2	16.3%	5.3	-7.8%	-18.9	-8.7	-37.6%[inhibitor]	11.5%
Cc1cc(C)cc(NC(=O)Cc2ccc(NC3=NC4CS(=O)(=O)CC4S3)cc2)c1 (stereo not given)	-2.4%	1.7	0.4%	-7.0	-0.8	-43.8%[inhibitor]	1.6%
CNc1nc(SC)nc(N2CCOCC2)n1	17.2%	2.4	0.5%	-11.6	12.8	?	8.2%
Cc1ccc(Nc2ccc(N)cc2S(=O)(=O)O)cc1	10.1%	?	4.7%	8.7	10.9	?	-6.1%
O=C(O)CNC(=O)CCCn1nnc2ccccc2c1=O	6.8%	2.1	-0.5%	-4.2	?	10.1%	11.6%
CC1(c2nnc(-c3cccc(Cl)c3)o2)CC(c2cccc(Cl)c2)=NO1 (stereo not given)	/	/	-1.0%	-4.6	/	20.7%	-9.5%
COc1ccc(CCC2(C)OCC(CCCCO)O2)cc1 (stereo not given)	/	/	-4.6%	-10.5	/	9.4%[15.4 µM]	0.2%
O=C(Nc1ncnc2sc3c(c12)CCCCC3)c1ccco1	-2.7%	2.3	-2.2%	13.2	-9.8	24.3%	10.7%
CCCn1c(=O)c2ccccc2n2c(SCCNCCO)nnc12	35.5µM*	-19.2	-0.4%	-7.8	13.2	?	-1.9%
CCOc1cc(C)c(C(C)C)cc1S(=O)(=O)n1ccc(C)n1	2.4%	2.6	1.7%	-4.1	-16.3	15.2%	-18.8%
